Source: PubChem (National Center for Advancing Translational Sciences (NCATS))
EPAC2 ant val = validation of human EPAC2 antagonists; AID 1645886; Q8WZA2; Potency, µM (highest dose often 112 µM), for the others: top-dose activity, negative = inhibition, hits mostly inhibitors; EPAC2 Rap1B BODIPY-GDP exchange, fluorescence; 16,000 compounds, 1.7% hits; active means well fitted inhibition curve with a large enough effect; inconclusive means small, poorly fitted or top-dose-only effect; inactive means no such curve, though single readings can be large or run the other way;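 further: 100% = activation by cAMP agonist control; nearly all actives have a fitted effect of over 40% in size; the record reuses the description of the EPAC1 agonist screen; inactives centre near -10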
Target sequence (Q8WZA2 whole entry, looked up): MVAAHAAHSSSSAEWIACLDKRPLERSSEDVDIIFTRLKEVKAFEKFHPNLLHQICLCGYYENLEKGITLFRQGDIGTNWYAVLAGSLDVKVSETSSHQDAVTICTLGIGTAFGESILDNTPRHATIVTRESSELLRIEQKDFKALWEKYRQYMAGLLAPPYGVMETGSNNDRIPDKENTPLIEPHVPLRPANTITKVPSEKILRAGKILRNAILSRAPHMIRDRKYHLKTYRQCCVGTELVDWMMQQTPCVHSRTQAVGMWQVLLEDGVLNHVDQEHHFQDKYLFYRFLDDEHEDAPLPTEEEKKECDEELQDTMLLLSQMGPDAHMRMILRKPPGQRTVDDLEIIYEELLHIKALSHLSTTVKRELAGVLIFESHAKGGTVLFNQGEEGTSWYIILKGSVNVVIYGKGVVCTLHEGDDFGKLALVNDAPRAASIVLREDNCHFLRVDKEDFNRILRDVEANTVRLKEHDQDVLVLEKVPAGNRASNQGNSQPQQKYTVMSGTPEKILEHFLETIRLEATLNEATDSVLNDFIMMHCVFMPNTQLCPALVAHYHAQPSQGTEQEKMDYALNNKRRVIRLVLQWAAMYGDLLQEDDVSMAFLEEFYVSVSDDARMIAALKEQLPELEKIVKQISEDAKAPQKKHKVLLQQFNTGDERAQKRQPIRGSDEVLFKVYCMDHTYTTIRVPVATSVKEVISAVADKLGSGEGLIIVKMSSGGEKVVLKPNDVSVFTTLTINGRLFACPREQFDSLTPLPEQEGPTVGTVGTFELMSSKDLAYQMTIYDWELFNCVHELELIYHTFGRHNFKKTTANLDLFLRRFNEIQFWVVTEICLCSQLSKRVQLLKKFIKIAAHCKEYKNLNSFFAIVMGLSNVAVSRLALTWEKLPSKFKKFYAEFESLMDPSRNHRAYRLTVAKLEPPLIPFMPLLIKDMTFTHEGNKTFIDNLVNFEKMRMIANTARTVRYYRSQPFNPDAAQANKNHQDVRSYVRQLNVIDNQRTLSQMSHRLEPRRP
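Fluorescent exchange read-out: 100 nM EPAC2 with 250 nM RAP1B–BODIPY-GDP and 50 uM GDP; BODIPY-GDP release lowers fluorescence. Read at 480/540 nm every 5 min for 30 min at room temperature; normalized to 6.5 mM cAMP.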
An asterisk follows results filed as active; ? = inconclusive; & = joins results of further samples; ! = repeats disagree; [ ] = dose if it differs, or a comment. Potency means the concentration at half of the fitted maximal effect. An excerpt (hit frequency here may not be typical).

SMILES	EPAC2 ant val
CC1(C)CC[C@]2(C(=O)O)C(O)C[C@@]3(C)C(=CCC4[C@@]5(C)CCC(O)C(C)(C)C5CC[C@@]43C)C2C1 (stereo partly specified)	-16%
O=C(Nc1ccccc1)[C@@H]1CC=C[C@@H]2CCN(C3CC3)C(=O)[C@@H]21	-27%
Cn1c(=O)c2[nH]c(C3CCCC3)nc2n(C)c1=O	-15%&-1%&-12%
COc1cccc(CN2CCCC(c3nc(-c4ccncc4)ncc3-c3ccccc3C)C2)c1O (stereo unspecified)	-11%
COc1cc2cc3c4cc(OC)c(OC)cc4cc[n+]3c(C)c2cc1OC	-6%
CN1CCC(=O)N([C@H](CN=[N+]=[N-])c2ccccc2)CC1	-29%
CCNc1ncc2nc(-c3ccccc3)c(=O)n(C)c2n1	-16%
CC[C@]12CCCN3CCc4c(n(c5ccccc45)C(=O)C1)[C@@H]32	16%[56.6 µM]
CCCCC(=O)Oc1ccccc1C(=O)O	-6%
COC(=O)c1cc(CNC(=O)c2cccc(N(C)C)c2)cc(NC(=O)c2ccccc2Cl)c1	-5%
O=C(O)C[C@H]1c2ccc(C(F)(F)F)cc2S(=O)(=O)N1C1CCCCC1	16%
COC(=O)c1c(C)[nH]c(C)c1C(=O)c1ccccc1Cc1ccccc1	79µM*!
CC1(C)S[C@@H]2[C@H](NC(=O)Cc3ccccc3)C(=O)N2[C@H]1C(=O)O (tested in a mixture with another compound)	19%
[O-][n+]1cccc(CO)c1	-14%
COc1cccc(CCNc2ncnc3sc(C(=O)N4CCOCC4)c(C)c23)c1	7%
COc1cccc(OC)c1OCCNCC1COc2ccccc2O1 (stereo unspecified)	-18%&-15%&-17%
O=C(OCC(COC(=O)c1cccnc1)(COC(=O)c1cccnc1)COC(=O)c1cccnc1)c1cccnc1	85%[activator]
CC1/C=C/C=C/C=C/C=C/C=C/C=C/C=C/C(OC2OC(C)C(O)C(N)C2O)CC2O[C@@](O)(CC(O)CC(O)C(O)CCC(O)CC(O)CC(=O)OC(C)[C@H](C)C1O)CC(O)C2C(=O)O (stereo partly specified)	44%[activator]
CS(=O)(=O)Nc1cc2occ(NC=O)c(=O)c2cc1Oc1ccccc1	27%
O=c1c2ccccc2oc2ccc(Oc3ccccc3)cc12	?
COc1cccc(-c2nc(NCc3cccs3)c3ccccc3n2)c1	-22%
CNCCC(Oc1ccccc1C)c1ccccc1 (stereo unspecified)	-22%
CN(C)c1ccc(-c2nccc(Nc3ccc(F)cc3)n2)cc1	-29%
O=C(O)Cc1ccc(CCNS(=O)(=O)c2ccc(Cl)cc2)cc1	17%
Cc1noc(C)c1-c1nc(N(C)Cc2ccco2)c2ccccc2n1	20µM*
CCCN[C@@H]1C(=O)N2C(C(=O)OCCC)=C(C)CS[C@H]12	?
Cc1cn2cc(CNC(=O)CN3Cc4ccccc4OC(c4ccccc4F)C3)nc2s1 (stereo unspecified)	-24%
CC(C)CN1CC[C@@]2(CCCN(C(=O)c3cccc(F)c3)C2)C1	-29%
S=C(S)N1CCCC1	0%&-19%
COC(=O)C[C@H](NC(=O)[C@H](C)NC(=O)[C@@H](NC(=O)OCc1ccccc1)C(C)C)C(=O)CF	-9%[151 µM]
N=c1c[n+](N2CCOCC2)[n-]o1	26%
Cc1ccccc1-c1cncnc1NCc1ccccc1	-22%
COc1ccc(-c2nc3cnc(N4CCOCC4)nc3n(-c3ccc(OC)cc3)c2=O)cc1	8%
COC(=O)C1N[C@@H]([C@@H](NC(=O)COc2ccccc2)C(=O)NCc2ccccc2)SC1(C)C (stereo partly specified)	-8%
CC(=O)Nc1cc(C(=O)N2CCCC(C)C2)cc2ncn(CCc3ccccn3)c12 (stereo unspecified)	2%
COc1ccc(CC(N)C(=O)NC2C(O)[C@H](n3cnc4c(N(C)C)ncnc43)O[C@@H]2CO)cc1 (stereo partly specified)	-11%
Cn1c(=O)c(-c2ccccc2)c(O)c2ccccc21	32%[activator]
C#CCN(Cc1ccccc1)S(=O)(=O)C=C	?
COc1ccc(-n2c(=O)c(-c3ccc(Cl)cc3)nc3cnc(N4CCOCC4)nc32)cc1	-28%
Cc1cccc(CNc2ccnc(-c3cccc(NS(C)(=O)=O)c3)n2)c1	-6%
O=c1cnc2cnc(N3CCOCC3)nc2n1C1CC1	-4%
COc1ccccc1-c1cc(NCc2ccccc2)ncn1	-34%
CC(=O)c1ccc(F)c(-c2cc(C)cc3c2OC(CNC(=O)Cc2ccc4c(c2)OCO4)C3)c1 (stereo unspecified)	?
c1cnc2[nH]ccc2c1	-9%
COc1cc(=O)n2c(c1C(=O)NCc1ccco1)CCN(C(=O)c1c(F)ccc(F)c1F)CC2	-14%
O=C(C[n+]1ccccc1)c1cccc([N+](=O)[O-])c1	5%
OC1(c2cccnc2)CCN(Cc2ccc3c(c2)CN(Cc2cccc(C(F)(F)F)c2)CCO3)CC1	-29%
COc1ccc(NC(=O)/C=C/c2ccc(Cl)cc2)cc1	-26%
Nc1nnc(-c2cccc(Cl)c2Cl)c(N)n1	-11%&-5%&-26%
CC1CN(CC(=O)NCC2(N3CCOCC3)CCCC2)Cc2cc(Cl)ccc2O1 (stereo unspecified)	-27%
COC(=O)CCC(C)C1CCC2C3C(C[C@H](O)C12C)C1(C)CC[C@@H](O)CC1C[C@H]3O (stereo partly specified)	-25%
CC1(C)C(O)CC[C@]2(C)C1CC[C@@]1(C)C2C(=O)C=C2[C@@H]3C[C@@](C)(C(=O)O)CC[C@@]3(C)CCC21C (stereo partly specified)	7.1µM*
Oc1c(Cl)cc(Cl)c(Cl)c1Cc1c(O)c(Cl)cc(Cl)c1Cl	45µM*!
COCCCCC(=NOCCN)c1ccc(C(F)(F)F)cc1	-20%&10%
CC[C@H](C)C(=O)O[C@H]1C[C@@H](C)C=C2C=C[C@H](C)[C@H](CC[C@@H]3C[C@@H](O)CC(=O)O3)[C@H]21	?
OCC1(CO)COC(C(Cl)(Cl)Cl)OC1	14%
O=C(NCc1nnc2n1CCN(C(=O)c1cccc(Cl)c1)CC2)C1CC1	-25%
COc1ccc(CNC(=O)c2cnn(-c3nccc(-c4ccco4)n3)c2C)cc1OC	1%
COc1ccccc1-c1ccnc(-n2ncc(C(=O)NCc3cccc(C)n3)c2C)n1	4%
COCCn1c(=O)c(-c2cccc(F)c2)nc2cncnc21	-33%

Arranged by molar mass (descending): some entries from above.
SMILES	EPAC2 ant val
COc1cccc(CN2CCCC(c3nc(-c4ccncc4)ncc3-c3ccccc3C)C2)c1O (stereo unspecified)	-11%
O=C(O)C[C@H]1c2ccc(C(F)(F)F)cc2S(=O)(=O)N1C1CCCCC1	16%
O=c1c2ccccc2oc2ccc(Oc3ccccc3)cc12	?

(further entries)
SMILES	EPAC2 ant val
O=C(c1cc(C(F)(F)F)cc(C(F)(F)F)c1)N1CCC2(CC1)CCN(c1ccncc1)CC2	-26%
O=C(NCc1ccncc1)c1cnn(-c2nccc(-c3cc4ccccc4o3)n2)c1C1CC1	13%
Oc1ccc2c(c1)OCC1c3cc4c(cc3OC21)OCO4 (stereo unspecified)	-6%
O=C1NC(=O)C(Cc2ccccc2)(C2CCN(Cc3cccn3-c3cccnc3)CC2)N1 (stereo unspecified)	-7%
CC(=O)NC(CCC(=O)O)C(=O)O (stereo unspecified)	-2%
CC(=O)NCCNc1ncnc2ccc(-c3c(C)noc3C)cc12	-14%
Cc1ccc(CNc2ncnc3sc(C(=O)N4CCCCC4c4cccnc4)c(C)c23)o1 (stereo unspecified)	-3%
O=C(C[n+]1ccncc1)c1cccc([N+](=O)[O-])c1	-2%
CC[C@@H](C(=O)[C@@H](C)[C@@H](O)[C@H](C)CCc1ccc(C)c(O)c1C(=O)O)[C@H]1O[C@](CC)([C@H]2CC[C@](O)(CC)[C@H](C)O2)C[C@@H]1C	-23%
C#Cc1cccc(C(=O)NCc2nc(-c3ccccc3NC(C)=O)oc2C)c1	-7%
COc1cc(OC)c2nc(-c3cc4c(c(OC)c3)OCCN(C(=O)C(C)c3n[nH]c(=O)c5ccccc35)C4)cc(C)c2c1 (stereo unspecified)	-9%
CC(C)(C)C(O)/C=C/c1ccc2c(c1)OCO2 (stereo unspecified)	-11%
NC(Cc1cccc(-c2ccccc2CP(=O)(O)O)c1)C(=O)O (stereo unspecified)	10%
O=C(c1ccco1)N1CCC2(CC1)CCN(c1ncccn1)CC2	-29%
O=c1cc(-c2ccc(O)cc2)oc2ccc(O)cc12	-12%
O=C(c1cccnc1)C1CCCN(Cc2ccc3c(c2)CN(C(=O)c2cccs2)CCO3)C1 (stereo unspecified)	-10%
C#C[C@]1(O)CC[C@H]2[C@@H]3CCc4cc(OC5CCCC5)ccc4[C@H]3CC[C@@]21C	-27%
CC(C)NC(=O)N1CC2(CCN(C(=O)c3cc(C(F)(F)F)cc(C(F)(F)F)c3)CC2)C1	?
CC(NC(=O)C1CCOCC1)c1nnc2n1CCN(Cc1ccc3cccnc3c1)CC2 (stereo unspecified)	-4%
COCC(=O)N1CCC2(CCCN(C(c3ccccc3)c3ccccc3)C2)CC1	?

Quoted at random: four records from the list
SMILES	EPAC2 ant val
O=C(c1cc(C(F)(F)F)cc(C(F)(F)F)c1)N1CCC2(CC1)CCN(c1ccncc1)CC2	-26%
C#Cc1cccc(C(=O)NCc2nc(-c3ccccc3NC(C)=O)oc2C)c1	-7%
COc1cc(OC)c2nc(-c3cc4c(c(OC)c3)OCCN(C(=O)C(C)c3n[nH]c(=O)c5ccccc35)C4)cc(C)c2c1 (stereo unspecified)	-9%
CC(C)NC(=O)N1CC2(CCN(C(=O)c3cc(C(F)(F)F)cc(C(F)(F)F)c3)CC2)C1	?

(cont.)
SMILES	EPAC2 ant val
COc1ccc(-n2c(=O)cnc3cnc(N4CCNCC4)nc32)cc1	-8%
COc1cc(C(C)=O)ccc1OCCCN1CCC(c2noc3cc(F)ccc23)CC1	5%
[Li+]	9%
Cc1c2oc3c(C)ccc(C(=O)N[C@@H]4C(=O)N[C@@H](C(C)C)C(=O)N5CCC[C@@H]5C(=O)N(C)CC(=O)N(C)[C@@H](C(C)C)C(=O)O[C@H]4C)c3nc-2c(C(=O)N[C@@H]2C(=O)N[C@@H](C(C)C)C(=O)N3CCC[C@@H]3C(=O)N(C)CC(=O)N(C)[C@@H](C(C)C)C(=O)O[C@H]2C)c(N)c1=O	-20%
Cc1cc(N)c2cc(NC(=O)Nc3ccc4nc(C)cc(N)c4c3)ccc2n1	40µM*
Cc1cc(C)n(CC(=O)N2CCC(n3c(C(C)C)nc4cccnc43)CC2)n1	-24%
Cc1cc2nccc(C)c2cc1C	?
COCC(=O)N1CCC[C@@]2(CCN(Cc3ccccc3)C2)C1	-14%
CSc1nc(N)c2ncn([C@H]3O[C@H](COP(=O)(O)OP(=O)(O)OP(=O)(O)O)[C@@H](O)[C@@H]3O)c2n1	-20%
Cc1c(CCO)sc[n+]1CC(=O)c1ccccc1	0%
Cc1cccc(CNc2nc(-c3cccnc3)nc3ccccc23)c1	-28%
CN(C)C(=O)COC(=O)Cc1ccc(OC(=O)c2ccc(N=C(N)N)cc2)cc1	-1%
Nc1nc(N)c(N=O)c(OCC2CCCCC2)n1	-17%
Cc1ccc2c(c1)C(=O)[C@@]1(O)CCN(c3ccccc3)C1=N2	108%[activator]
CC1CCC(C(C)C)[C@H](OC(=O)c2ccccc2)C1 (stereo partly specified)	-17%
COc1ncc2nc(-c3cccs3)c(=O)n(CCc3ccccc3)c2n1	-9%
COC(=O)C1CCN(Cc2ccc3c(c2)CN(C(=O)C2Cc4ccccc4O2)CCO3)CC1 (stereo unspecified)	-19%
COc1ccc(-c2cnc(-c3cccnc3)o2)cc1	-13%
C(=C\c1ccnc2ccccc12)/c1ccc(N2CCNCC2)cc1	-29%
NCCNC(=O)c1ncsc1-c1cccc(F)c1	15%

Taken from the entries so far, 5 compounds:
SMILES	EPAC2 ant val
COc1ncc2nc(-c3cccs3)c(=O)n(CCc3ccccc3)c2n1	-9%
COC(=O)C1CCN(Cc2ccc3c(c2)CN(C(=O)C2Cc4ccccc4O2)CCO3)CC1 (stereo unspecified)	-19%
COc1ccc(-c2cnc(-c3cccnc3)o2)cc1	-13%
C(=C\c1ccnc2ccccc12)/c1ccc(N2CCNCC2)cc1	-29%
NCCNC(=O)c1ncsc1-c1cccc(F)c1	15%

Continuation:
SMILES	EPAC2 ant val
CCCCC(CC)COC(=O)/C=C/c1ccc(OC)cc1 (stereo unspecified)	-1%
COc1ccc2c(=O)ccoc2c1	-11%
COc1ccc(-c2coc3cc(O)ccc3c2=O)c(OC)c1	-14%
COc1cc(OC)c(/C=C2/C(=O)Nc3ccccc32)c(OC)c1	-18%
NCC(O)CC(=O)O (stereo unspecified)	-8%
C=C(C)C1CC=C(C(=O)O)CC1 (stereo unspecified)	-5%&-11%
Cc1csc(C)[n+]1CCC1CCCCC1	10%
O=Cc1ccccc1-c1cn(CCCOCc2ccccc2)nn1	-5%
Clc1ccccc1-c1ccc2ncnc(N3CCNCC3)c2c1	-20%
C[N+]1(C)CCC(OC(=O)C(O)(c2ccccc2)C2CCCC2)C1 (stereo unspecified)	-20%&7%
COCCC1CCCCN1Cc1nc(N2CCCCC2)c2cc(OC)c(OC)cc2n1 (stereo unspecified)	-4%
OCCCNCc1cc2ccc(F)cc2nc1N1CCN(c2cccc(Cl)c2)CC1	-20%
COc1ccc(-c2c(-c3cc(OC)c(OC)c(OC)c3)noc2C)cn1	?
Nc1ncnc2c1c(I)cn2C1OC(CO)C(O)C1O (stereo unspecified)	-20%[151 µM]
C=CCc1cc(OC)c(O)c(C(=O)NCCO)c1	-12%
CC(C(O)c1ccccc1)N(C)CCOC(c1ccccc1)c1ccccc1 (stereo unspecified)	-9%
COc1cccc(Cn2c(=O)cnc3cnc(N4CCOCC4)nc32)c1	?
Cc1ccccc1-c1cc2c(c(OC3CCOC3)c1)OCCN(C(=O)Cn1cccn1)C2 (stereo unspecified)	?
CCn1c(-c2ccccc2F)nc2cc(NC(C)=O)cc(C(=O)N3CCC[C@H]3C(=O)OC)c21	-13%
